PKD1 inh: PKD1 (human) kinase inhibition. inhibition, %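 (about 10 µM by stock and volumes)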. actives 0.056% (n = 200,000). PKD1 kinase fluorescence polarization assay;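 active = inhibition of 50% or more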;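 also: controls were vehicle for no effect and a reference inhibitor for full effect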
RGS16-Gao HTS: modulates binding between human RGS16 and Galphao | O15492+P09471 | binding response (% of control), % at 10 µM | actives 0.38% (n = 220,000) | bead-based flow cytometry RGS16-Galphao binding, fluorescence; actives lie on both sides;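 active = below 25% or above 175%, edge rows of some plates excepted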;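 also: Galphao activated by GDP with aluminum fluoride before binding; 100% = wells without compound and 0% = beads without RGS; some results beyond the cut were filed as inactive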
Target sequence (O15492 whole entry, looked up): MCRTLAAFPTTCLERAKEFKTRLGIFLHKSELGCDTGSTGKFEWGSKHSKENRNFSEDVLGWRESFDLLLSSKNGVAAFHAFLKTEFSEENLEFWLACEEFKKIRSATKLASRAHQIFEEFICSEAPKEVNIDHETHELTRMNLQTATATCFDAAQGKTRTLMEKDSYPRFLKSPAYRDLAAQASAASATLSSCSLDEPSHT
Target sequence (P09471 whole entry, looked up): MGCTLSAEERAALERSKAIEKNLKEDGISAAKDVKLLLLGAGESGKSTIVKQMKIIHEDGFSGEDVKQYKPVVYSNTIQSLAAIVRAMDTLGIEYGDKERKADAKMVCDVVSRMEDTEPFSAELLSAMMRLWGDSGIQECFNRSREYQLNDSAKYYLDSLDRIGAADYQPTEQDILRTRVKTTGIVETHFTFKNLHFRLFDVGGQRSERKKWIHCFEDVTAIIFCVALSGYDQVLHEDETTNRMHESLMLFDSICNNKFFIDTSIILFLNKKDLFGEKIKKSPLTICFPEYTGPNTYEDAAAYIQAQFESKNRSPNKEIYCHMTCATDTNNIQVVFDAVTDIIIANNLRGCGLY
Insulin prom inh: TRM-6 insulin promoter activity inhibition; TRM-6 cells (human fetal islet line), insulin promoter-eGFP reporter, imaging; reporter expression induced with tamoxifen; AID 1273; inhibition, % at 2 µM; actives 0.9% (n = 130,000);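 active = inhibition above the mean plus 3 SD, with well images judged a real hit on visual review, cut at about 60% in these data, passing the limit was not always enough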
HSV augment: HSV replication enhancement; HSV replication augmentation in cells, fold increase; maximum fold increase; actives 0.005% (n = 220,000); AID 1956;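 active = peak rise of 1.5-fold or more in the series; tested in PC3 cells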;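 also: first round at 10 µM; read as green reporter fluorescence; hits show the peak of a series up to 25 µM; 1 = signal of infected wells without compound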
GALR2 agonist: agonists of human galanin receptor 2 (GALR2); GALR2-expressing cells, agonist activation read-out; activation, %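 (tested at 5 µM)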; actives 0.48% (n = 140,000); O43603;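 active = above mean plus 3 SD of all compounds, about 5% in these data, not always enough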;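 also: 0% = vehicle buffer wells and 100% = reference agonist at full effect; tested in CHO reporter cells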
Target sequence (O43603 whole entry, looked up): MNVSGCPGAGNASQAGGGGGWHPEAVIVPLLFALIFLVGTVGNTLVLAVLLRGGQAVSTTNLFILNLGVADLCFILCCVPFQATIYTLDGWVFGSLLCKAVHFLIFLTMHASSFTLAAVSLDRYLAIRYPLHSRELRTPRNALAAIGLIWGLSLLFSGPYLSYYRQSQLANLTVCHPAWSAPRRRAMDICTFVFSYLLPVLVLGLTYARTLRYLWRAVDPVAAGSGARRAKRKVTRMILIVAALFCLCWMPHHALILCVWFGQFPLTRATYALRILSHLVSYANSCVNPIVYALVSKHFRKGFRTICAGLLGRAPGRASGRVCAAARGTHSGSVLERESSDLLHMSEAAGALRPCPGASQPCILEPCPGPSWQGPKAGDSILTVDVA
Insulin prom inh cell count: recorded beside Insulin prom inh, whose call it bears; normalized cell count, %; measured here: cell count, toxicity; reference of the scale not given here;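 cells exposed to compound for 48 h; stained nuclei by imaging scaled within each plate; lower means fewer cells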
HSV augment primary fold: second read-out of HSV augment, no call of its own (marks repeat the call); fold increase; compound at 10 µM; measured here: primary screen fold increase 10 uM; tested in PC3 cells;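 GFP signal in the first replicate; 1 = infected wells without compound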
Active calls of the source: *; i = inactive; . = not tested or not shown.

Each structure is followed by: PKD1 inh | GALR2 agonist | Insulin prom inh cell count | Insulin prom inh | HSV augment | HSV augment primary fold | RGS16-Gao HTS
1	CN(C)S(=O)(=O)c1ccc(C(=O)NC(=O)CSc2ccccc2)cc1
    2 | -1.6 | 94 | 3 | i | 1 | 103
2	S=c1[nH]nc(-c2cccs2)n1/N=C/c1cn(-c2ccccc2)nc1-c1ccc(Cl)cc1
    . | . | . | . | i | 0.93 | 99
3	CC(C)(C)c1ccc(CS(=O)CC(O)CO)cc1 (stereo not drawn)
    -1 | -1.2 | 110 | 17 | . | . | 106
4	COc1ccc(N(C)C(=S)Nc2ccc3nc(C)c(C)nc3c2)cc1
    9 | -0.5 | . | . | i | 1.2 | 97
5	O=C(Cc1ccccc1F)OCC(=O)N1CCN(C(=O)c2ccco2)CC1
    -1 | . | 167 | 0 | i | 0.95 | 118
6	Nc1ccc2nc(CCCCCCc3nc4ccc(N)cc4[nH]3)[nH]c2c1
    -2 | . | . | . | i | 1.1 | 103
7	COc1cc(C(=O)OCC(=O)Nc2ccc(SC(F)F)cc2)cc(OC)c1OC
    10 | -0.9 | 44 | -125 | i | 0.98 | 108
8	CCc1cc(C(c2ccc(OC)c(OC)c2)N2CCOCC2)c(NC(=O)c2ccccc2)s1 (stereo not drawn)
    -2 | -0.3 | . | . | i | 0.79 | 108
9	COc1ccc(/C=N/n2cnc3c([nH]c4ccc(Br)cc43)c2=O)cc1CN1CCOCC1
    -3 | 0.6 | 147 | -11 | i | 1 | 98
10	COc1ccc(C(=O)Nc2ncc3c(n2)CC(c2ccco2)CC3=O)cc1 (stereo not drawn)
    -6 | -0.1 | . | . | i | 1 | 75
11	O=C(Nc1ccc(Cl)c(Cl)c1)Nc1ccccc1C(=O)O
    1 | . | 125 | 11 | i | 0.94 | 99
12	CCc1ccc(CN(C)CC(=O)Nc2sccc2C#N)cc1
    1 | -0.9 | 68 | -17 | i | 1 | 120
13	c1ccc2c3c(c(CN4CCCC4)cc2c1)COC3
    -11 | . | . | . | i | 0.96 | 101
14	COc1ccc(-c2ccc(S(=O)(=O)NCC3CCCO3)cc2)cc1 (stereo not drawn)
    3 | -2.3 | 141 | 21 | i | 0.96 | 98
15	CCOC(=O)N1CCN(CC(O)COc2ccccc2C(C)CC)CC1 (stereo not drawn)
    -1 | -0.6 | 95 | -95 | i | 0.9 | 100
16	NC(=O)c1ccccc1NC(=O)/C=C/c1ccccc1
    0 | 0.6 | . | . | i | 1.1 | 102
17	CC(C)(C)NC(=O)Nc1ccc(Cn2cc(C(F)(F)F)ccc2=O)cc1
    -4 | . | 133 | 41 | i | 0.9 | 103
18	CC(C)c1ccc2oc(-c3ccc(NC(=O)c4ncn[nH]4)cc3)nc2c1
    0 | -3.7 | 101 | -335 | i | 0.88 | 96
19	COC(=O)c1ccc(CSc2nnc(Nc3ccccc3OC)s2)o1
    -7 | -0.9 | 90 | -9 | i | 0.78 | 90
20	CCn1c(=O)cc(OCC(=O)N2CCN(c3cccc(C(F)(F)F)c3)CC2)c2ccccc21
    -7 | -0.2 | . | . | i | 0.88 | 102

Five compounds from above with just PKD1 inh, HSV augment primary fold and Insulin prom inh cell count:
entry | Molecule | PKD1 inh | HSV augment primary fold | Insulin prom inh cell count
7 | COc1cc(C(=O)OCC(=O)Nc2ccc(SC(F)F)cc2)cc(OC)c1OC | 10 | 0.98 | 44
16 | NC(=O)c1ccccc1NC(=O)/C=C/c1ccccc1 | 0 | 1.1 | .
6 | Nc1ccc2nc(CCCCCCc3nc4ccc(N)cc4[nH]3)[nH]c2c1 | -2 | 1.1 | .
5 | O=C(Cc1ccccc1F)OCC(=O)N1CCN(C(=O)c2ccco2)CC1 | -1 | 0.95 | 167
17 | CC(C)(C)NC(=O)Nc1ccc(Cn2cc(C(F)(F)F)ccc2=O)cc1 | -4 | 0.9 | 133

Going on with the list:
Each structure is followed by: PKD1 inh | GALR2 agonist | Insulin prom inh cell count | Insulin prom inh | HSV augment | HSV augment primary fold | RGS16-Gao HTS
21	Nc1nnc(-c2ccc(Cl)c(Cl)c2)s1
    -4 | . | . | . | i | 1 | 96
22	O=C(CCCc1nc(-c2ccccc2Cl)no1)NCc1cccnc1
    -16 | -1.6 | 102 | 13 | i | 0.71 | 102
23	Cc1cc(C)c(S(=O)(=O)Nc2ccc(C(N)=O)cc2)c(C)c1
    2 | . | . | . | i | 1.1 | 101
24	N#Cc1c2c(c(Nc3ccccc3)n3c1nc1ccccc13)CCC2
    -14 | 4.5 | 47 | -30 | i | 0.86 | 97
25	COc1ccc(CSc2nnc(C)n2N)cc1Br
    -12 | -1.2 | 104 | 9 | i | 0.96 | 107
26	Cc1ccc2[nH]c(O)c(N=NC(=O)C(C)n3cnc4ccccc4c3=O)c2c1 (stereo not drawn)
    3 | 1.0 | 131 | 3 | i | 1 | 103
27	O=C(NCCCCCc1nc2ccccc2[nH]1)c1ccccc1Cl
    . | . | . | . | i | 0.98 | 103
28	CCn1c([N+](=O)[O-])nc2c1c(=O)[nH]c(=O)n2C
    -6 | . | . | . | i | 0.75 | 100
29	CCC(Sc1ccccn1)C(=O)Nc1cccc([N+](=O)[O-])c1 (stereo not drawn)
    -1 | . | . | . | i | 0.99 | 94
30	COc1ccc(N2CSC3=C(C#N)C(c4cccs4)CC(=O)N3C2)cc1 (stereo not drawn)
    3 | 0.0 | 82 | -9 | i | 0.99 | 77
31	CCN(CC)S(=O)(=O)c1ccc(Cl)c(C(=O)NCC2CCCO2)c1 (stereo not drawn)
    11 | 0.1 | 108 | -40 | i | 0.86 | 100
32	CCCCCOc1ccc(CSc2ncn[nH]2)cc1
    5 | -2.1 | 105 | 62 | . | . | 93
33	Brc1cnc(N2CCCCC2)nc1N1CCOCC1
    -9 | -0.9 | 135 | 34 | i | 0.97 | 100
34	CC(C)C(C(=O)Nc1nccs1)c1ccccc1 (stereo not drawn)
    20 | -0.9 | . | . | i | 0.99 | 102
35	CC(=O)c1ccc(NC(=S)Nc2ccn(Cc3ccc(Br)cc3)n2)cc1
    1 | . | 104 | 11 | i | 0.99 | 92
36	CCCCc1nnc(NC(=O)C(C)Sc2nc(N)cc(=O)[nH]2)s1 (stereo not drawn)
    3 | 1.5 | 114 | -12 | i | 0.94 | 107
37	CCn1c(=N)n(CC(=O)c2cccc(OC)c2)c2ccccc21
    . | . | . | . | i | 0.86 | 103
38	CC1CCc2cc(F)ccc2N1C(=O)CSc1nnc2c3cc(F)ccc3n(C)c2n1 (stereo not drawn)
    -8 | -1.8 | . | . | i | 0.89 | 109
39	O=C(N/N=C1\CCc2ccccc21)c1ccccc1O
    -5 | 0.6 | . | . | i | 0.99 | 105
40	O=C(COC(=O)Cn1cnc2ccccc2c1=O)Nc1cc(Cl)ccc1[N+](=O)[O-]
    -4 | 0.4 | 91 | -13 | i | 0.9 | 108
41	CC(C)c1ccc(/C=C/C(=O)NCCC2=CCCCC2)cc1
    -5 | -1.1 | 128 | 27 | i | 1 | 120
42	CCCN(CCO)Cc1ccc2ccccc2c1
    2 | -2.6 | 82 | -7 | i | 0.92 | 101
43	CCCC(=O)C1C(=O)CC(C)(C)C(c2cc(C)no2)C1=O (stereo not drawn)
    -9 | -1.2 | 114 | 26 | i | 0.91 | 112
44	CC12CCC(C(N)=O)(C1Br)C2(C)C (stereo not drawn)
    -4 | 1.1 | 117 | 28 | i | 1 | 100
45	CCC(=O)Nc1ccc(N2CCN(C(=O)c3cccs3)CC2)cc1
    -4 | . | 127 | -44 | i | 1.2 | 99
46	COc1ccc(CC(=O)N2CCN(c3ccccn3)CC2)cc1
    4 | -2.0 | 58 | 46 | i | 0.95 | 104
47	O=C(NC1CCCCC1)c1cccs1
    -4 | -1.4 | 203 | -14 | i | 1 | 102
48	CC1CN(S(=O)(=O)c2cccc(C(=O)Nc3ccc4c(c3)CCC4)c2)CC(C)O1 (stereo not drawn)
    1 | -1.9 | 114 | 2 | i | 0.94 | 108
49	COc1ccc(/C=C/C(=O)Nc2ccccc2C)cc1S(=O)(=O)N1CCOCC1
    . | . | . | . | i | 0.86 | 101
50	COc1ccc(-c2nc(CNS(=O)(=O)c3ccc(OC)c(OC)c3)cs2)cc1
    3 | -1.2 | . | . | i | 0.75 | 104
51	O=C(NCCc1ccc(F)cc1)C1CCCCC1
    -3 | . | . | . | i | 1 | 131
52	COC(=O)c1ccccc1NC(=O)COc1ccccc1
    -6 | -1.7 | 86 | -9 | i | 0.94 | 82
53	O=C(O)c1csc(-n2nc(-c3ccccc3)cc2C(F)(F)F)n1
    1 | . | . | . | i | 0.96 | 107
54	CCCCN(CC)Cc1ccc(CNC(=O)Nc2ccc(OC)cc2OC)o1
    3 | -1.3 | . | . | i | 1 | 102
55	Cc1ccc(-c2nc3ncccc3o2)cc1NC(=O)CC(C)C
    2 | -1.5 | . | . | i | 1 | 109
56	CCCCCOC(=O)c1ccccc1C(=O)O
    2 | -1.3 | . | . | i | 0.88 | 104
57	COc1ccc(C)cc1NC(=O)C(OC(=O)CNC(=O)c1cc(C)cc(C)c1)c1ccccc1 (stereo not drawn)
    -6 | -1.7 | . | . | i | 0.99 | 108
58	COc1ccc(COC(=O)NNC(=O)c2ccc(OC)cc2)cc1
    2 | -2.1 | 99 | 52 | i | 1 | 104
59	CSc1nncc(-c2ccc(F)cc2)n1
    -1 | 0.5 | 112 | 6 | i | 1 | 102
60	CCCCOc1ccc(-c2nnn(C(C)(C)C(=O)OC)n2)cc1
    -1 | -0.5 | 225 | 31 | i | 0.97 | 102
61	COC(=O)c1c(NC(=O)CN2CCC3(O)CCCCC3C2c2ccccc2OC)sc(C)c1C (stereo not drawn)
    8 | -1.1 | . | . | i | 0.92 | 106
62	O=C(CNC(=O)c1ccncc1)N/N=C/c1cc(Br)ccc1OCc1ccccc1
    . | . | . | . | i | 0.93 | 103
63	COCc1nnc(NC(=O)c2ccc(S(=O)(=O)N(C)C3CCCCC3)cc2)o1
    -8 | -1.4 | 65 | -29 | i | 1 | 100
64	COc1ccccc1N=C(C)C1=C(O)CC(c2ccccc2)CC1=O (stereo not drawn)
    7 | . | 6 | -163 | i | 0.78 | 102
65	Cc1[nH]nc2c1C(c1ccccc1F)NC2=O (stereo not drawn)
    -14 | 0.0 | . | . | i | 0.89 | 102
66	CCC/S(CC1CC1(Cl)Cl)=N\S(=O)(=O)c1ccc(C)cc1 (stereo not drawn)
    -1 | -0.6 | 88 | 3 | i | 1 | 70
67	CCCn1c(-c2cc(OC)c(OC)c(OC)c2)nc2nc3ccccc3nc21
    -4 | -0.8 | 96 | 6 | i | 0.93 | 135
68	C=CCNC(=O)C1CC(=O)N(c2ccc(C)cc2)C1 (stereo not drawn)
    -4 | -1.4 | . | . | i | 0.78 | 99
69	CCCCNC(=O)NS(=O)(=O)c1ccc(NC(=O)C(NC(N)=O)C(C)CC)cc1 (stereo not drawn)
    . | . | . | . | i | 0.89 | 102
70	Nc1c(-c2ccccn2)cnn1-c1nc(-c2ccc(F)cc2)cs1
    -4 | . | . | . | i | 0.97 | 99
71	COc1ccc(OC)c(S(=O)(=O)N2CCC(C(=O)N3CCc4ccccc4C3)CC2)c1
    -1 | -1.6 | 95 | 42 | i | 0.94 | 96
72	Cc1ccccc1C(=O)NNC1CC(=O)N(c2ccc3c(c2)OCCO3)C1=O (stereo not drawn)
    0 | -0.4 | 76 | -25 | i | 0.92 | 106
73	Nc1ccc2oc3ccccc3c2c1
    -12 | -0.8 | . | . | i | 1 | 108
74	Nc1cc(=O)nc(SCC(=O)Nc2ccccc2)n1-c1ccccc1
    -13 | -1.8 | 112 | 33 | i | 0.99 | 98
75	O=C(O)CCCn1cc(NC(=O)c2ccc(Br)o2)cn1
    7 | . | . | . | i | 1.1 | 107
76	COc1ccc(CCNc2cc(N3CCN(C(=O)c4ccccc4F)CC3)ccc2[N+](=O)[O-])cc1OC
    1 | -2.9 | 127 | 50 | . | . | 101
77	CCc1ccc(N(C(C)=O)c2nc(CCl)cs2)cc1
    -10 | . | . | . | i | 1.1 | 110
78	CCOC(=O)CCc1c(C)c(C#N)c2[nH]c3ccccc3n2c1=O
    -7 | -1.4 | 72 | 48 | i | 1.1 | 106
79	CCOc1ccccc1C1N(c2ccc(F)cc2)C(=O)C2CCCN21 (stereo not drawn)
    1 | -1.8 | 108 | 38 | i | 0.83 | 101
80	Cc1cc(NC(=O)c2ccc(Cl)cc2)c(C)cc1O
    2 | . | 66 | -47 | i | 0.91 | 98

2 of these compounds, reformatted:
61) COC(=O)c1c(NC(=O)CN2CCC3(O)CCCCC3C2c2ccccc2OC)sc(C)c1C (stereo not drawn)
  PKD1 inh = 8; GALR2 agonist = -1.1; Insulin prom inh cell count = .; Insulin prom inh = .; HSV augment = i; HSV augment primary fold = 0.92; RGS16-Gao HTS = 106
62) O=C(CNC(=O)c1ccncc1)N/N=C/c1cc(Br)ccc1OCc1ccccc1
  PKD1 inh = .; GALR2 agonist = .; Insulin prom inh cell count = .; Insulin prom inh = .; HSV augment = i; HSV augment primary fold = 0.93; RGS16-Gao HTS = 103

Compound activity (PubChem)
